RecA intein inh – Mtb RecA intein splicing inhibition | hit rate 0.75% among 290,000 | cell-free RecA intein splicing, fluorescence | inhibition, %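 (about 9 µM by stock and volumes)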; in the data active = inhibition above about 30%; inconclusive = no clear call, values can overlap the other calls;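 note: 0% = vehicle wells and 100% = reference inhibitor control wells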
Target sequence (P9WHJ3 whole entry, looked up): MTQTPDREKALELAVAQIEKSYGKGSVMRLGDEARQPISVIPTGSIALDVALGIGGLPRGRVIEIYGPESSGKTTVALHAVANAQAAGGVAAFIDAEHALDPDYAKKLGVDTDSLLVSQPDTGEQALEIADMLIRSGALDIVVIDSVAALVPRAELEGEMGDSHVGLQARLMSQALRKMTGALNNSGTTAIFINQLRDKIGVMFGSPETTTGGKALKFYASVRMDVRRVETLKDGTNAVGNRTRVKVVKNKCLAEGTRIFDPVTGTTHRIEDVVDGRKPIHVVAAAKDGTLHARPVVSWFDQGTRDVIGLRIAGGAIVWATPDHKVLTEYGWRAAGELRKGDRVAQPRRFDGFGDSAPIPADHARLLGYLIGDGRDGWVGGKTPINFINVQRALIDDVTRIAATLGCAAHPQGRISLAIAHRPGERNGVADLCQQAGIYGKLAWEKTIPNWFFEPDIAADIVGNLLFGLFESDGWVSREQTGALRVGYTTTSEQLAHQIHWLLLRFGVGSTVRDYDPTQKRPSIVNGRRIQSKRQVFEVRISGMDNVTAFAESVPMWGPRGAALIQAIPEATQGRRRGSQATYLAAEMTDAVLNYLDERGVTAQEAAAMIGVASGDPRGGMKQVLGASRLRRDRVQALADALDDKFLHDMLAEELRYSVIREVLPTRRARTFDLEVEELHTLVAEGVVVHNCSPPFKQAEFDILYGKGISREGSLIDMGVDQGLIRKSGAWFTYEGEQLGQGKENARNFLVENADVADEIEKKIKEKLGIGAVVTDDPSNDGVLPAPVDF
Arbovirus anti – arbovirus infection inhibition. hit rate 0.37% among 200,000. AID 1251. inhibition, % at 10 µM. arbovirus infection cell-based antiviral screen;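 active = inhibition from about 30%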;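 note: bluetongue infection of BSR cells; cell survival read as ATP light after 72 h; 0% = infected wells without compound and 100% = uninfected wells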
YopH PTP inh – inhibitors of Yersinia enterocolitica YopH tyrosine phosphatase; fluorescence Ex485/Em525; inhibition, %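 (about 10 µM by stock and volumes)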; hit rate 0.16% among 140,000;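 active = inhibition of 50% or more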;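 note: controls were vehicle for no effect and minimum signal wells for full effect; inactives centre near -20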
Mtb growth – M. tuberculosis H37Rv growth inhibitors, H37Rv strain (AID 1626); M. tuberculosis H37Rv growth inhibition; higher % means a stronger effect; inhibition, % at 10 µM; hits with a dose series show IC50 in µM; hit rate 0.95% among 220,000;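 active = confirmed in a dose series; inconclusive = inhibition above 80% but not taken into the dose series; inactive = below 80% or under 30% at every dose of the series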;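 note: bacteria incubated seven days before Alamar blue readout; 0% = bacteria only wells and 100% = bacteria with antibiotic wells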
Mtb betalactam – beta-lactam sensitization of Mtb H37Rv; M. tuberculosis H37Rv growth with meropenem, percent inhibition; hits of this screen are not shown here; hit rate 0.27% among 330,000; inhibition, % at 25 µM; AID 434955;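 active = about 74% or more and at least 40 points above the plate without the antibiotic, then above 30% in a dose series; inconclusive = first-round hits that could not be retested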;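 note: growth measured after seven days incubation then overnight dye step; 0% = bacteria only wells and 100% = bacteria with antibiotic; twin plates without the antibiotic show which effects depend on it; some results filed as inactive read as strong as hits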
Arbovirus anti repeat – second read-out of Arbovirus anti, no call of its own (marks repeat the call); inhibition, %; measured here: 10K subset replicate screen; many hits read low in the repeat;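 first of two repeat runs on a subset; 0% = infected and 100% = uninfected wells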
The depositor's hits bear a star; ? = inconclusive; / = no result given. Only part of the results is shown. The share of hits here may be higher or lower than overall.

The first 2 compounds (preview)
SMILES | RecA intein inh | Arbovirus anti | YopH PTP inh | Mtb growth | Mtb betalactam | others
CCN1CCCC1CNC(=O)C(NC(=O)C1CCC(C)CC1)C(C)C (configuration not stated) | 1.0 | 7 | 0 | / | -2
CCCNC(=O)c1cc2nc(-c3ccccc3)cc(C(F)(F)F)n2n1 | -14 | -6 | -26 | -1% | -5

Main list, repeating the preview:
SMILES | RecA intein inh | Arbovirus anti | YopH PTP inh | Mtb growth | Mtb betalactam | others
CCN1CCCC1CNC(=O)C(NC(=O)C1CCC(C)CC1)C(C)C (configuration not stated) | 1.0 | 7 | 0 | / | -2
CCCNC(=O)c1cc2nc(-c3ccccc3)cc(C(F)(F)F)n2n1 | -14 | -6 | -26 | -1% | -5
CC(C)CN=CC1=C(O)c2ccccc2C1=O | 0.3 | / | / | -4% | 1
Cc1nc(SCC(=O)NCC2CCCO2)c2c3c(sc2n1)CCC3 (configuration not stated) | 0.0 | / | / | / | -3
C[C@]12CCC3C(CC[C@H]4CC(O)CC[C@]34C)C1CC/C2=N/O (some centres not stated) | 0.1 | / | / | / | -8
Cc1ccccc1NC(=O)c1ccc(N/N=C/c2ccccc2O)c([N+](=O)[O-])c1 | -1.9 | -14 | -29 | / | 15
Cc1cc(C)c(C#N)c(Oc2ccccc2)n1 | -1.3 | 5 | -2 | 5% | -5
CN(c1nc2ccccc2n2c(-c3ccco3)nnc12)S(=O)(=O)c1ccccc1 | 1.9 | -2 | -16 | 1% | 2
CCN1C2=NCCCN2c2cc(C)c(C)cc21 | -3.9 | 8 | -29 | 8% | 20
O=C1CCCc2nc(N3CCN(c4ccccc4)CC3)ncc21 | 5.1 | -5 | -1 | -1% | -2
C=CCN(CC=C)C(=O)C1CCC(C(=O)N(CC=C)CC=C)CC1 (configuration not stated) | -3.2 | -3 | -31 | -4% | 3
Cc1cc(C)c2sc(N(CCCN(C)C)C(=O)c3ccc(S(=O)(=O)N4CCCc5ccccc54)cc3)nc2c1 | 27 | / | / | / | 100
Cc1cc(C)nc(/N=C(\N)N2CCCCC2)n1 | -2.6 | -3 | / | -6% | -11
CC(NC(=O)CCn1c(=S)[nH]c2ccsc2c1=O)c1ccccc1 (configuration not stated) | / | -2 | / | 6% | -3
CCOC(=O)Cc1csc(NS(=O)(=O)c2ccc(F)cc2)n1 | -6.2 | 11 | 2 | -5% | -5
CCN(CC)C(=O)c1nn(-c2ccccc2)c2c1C1CCC2(C)C1(C)C (configuration not stated) | 5.8 | 8 | / | 4% | 1
Cc1ccccc1C(=O)Nc1cccc(C(=O)N/N=C/c2cc(Cl)cc([N+](=O)[O-])c2O)c1 | 17 | -10 | / | 6% | 1
C[C@@]12C(=O)N(c3cccc(Br)c3)C(=O)N1[C@H](c1ccc(Cl)cc1)[C@@H]1C(=O)N(C3CCCCC3)C(=O)[C@@H]12 | 6.8 | / | / | / | 11
CCc1cc2ccccc2nc1SCC(=O)Nc1cc(C)on1 | -16 | -10 | -47 | 11% | -1
Fc1cccc(CSc2nnc3ccc(-c4ccncc4)nn23)c1 | -0.3 | 2 | / | -2% | 0
CC/C(=N\NC(=O)Nc1ccccc1)c1c(O)n(Cc2ccccc2)c(=O)[nH]c1=O | -3.0 | / | / | -10% | -1
CC1CC(C)CN(S(=O)(=O)c2ccc(C(=O)NCc3ccc4c(c3)OCO4)cc2)C1 (configuration not stated) | -7.1 | -3 | -8 | -6% | -5
CC(C)NC(=O)c1cc2n(n1)C(C(F)(F)F)CC(c1ccco1)N2 (configuration not stated) | 5.2 | 1 | / | 2% | -2
CC1CCCCN1C(=O)c1ccc(COc2ccc([N+](=O)[O-])cc2)o1 (configuration not stated) | -0.5 | -2 | -25 | 9% | -4
Nc1c(C(=O)N2CCCC2)sc2nc3c(cc12)CCCCCC3 | -4.5 | 3 | / | 37% | /
O=C(c1cc2c(s1)CCCC2)N1CCN(c2ccccc2)CC1 | 3.2 | 1 | / | 3% | -7
O=C(/C=C/c1ccc(S(=O)(=O)NCc2ccco2)cc1)NCc1ccccc1Cl | 2.5 | 5 | 8 | 12% | 1
CCn1c(SCC(=O)Nc2ccc(C(C)=O)cc2)nc2c([nH]c3ccccc32)c1=O | -0.1 | / | / | / | -21
Cn1ncc(Cl)c1C(=O)Nc1cccc(Cl)c1 | 3.3 | -5 | -27 | -3% | -5
CCCCn1c2ccc(F)cc2c2nnc(NN)nc21 | -3.8 | 1 | / | 4% | 2
Cc1oc(S(=O)(=O)N2CCCC2)cc1C(=O)Nc1ccc(F)cc1 | / | / | / | -4% | -4
CC(C(=O)NCc1ccccc1)n1cc([N+](=O)[O-])cn1 (configuration not stated) | 1.9 | / | / | / | 3
CSc1nc(C)cc(-c2cc(C(=O)Nc3ccccc3)on2)n1 | 1.7 | / | / | -4% | -1
Cc1ccc(-c2cc(-c3ccccc3)c3c(N)c(S(C)(=O)=O)sc3n2)cc1 | / | 21 | 12 | -5% | 12
CC1(C)C2CC[C@]3(C)C(CC=C4[C@@H]5C[C@@](C)(CO)[C@@H](O)C[C@]56C[C@@H](OC6=O)[C@]43C)[C@@]2(C)CC[C@@H]1O (some centres not stated) | 1.4 | / | / | 1% | -4
O=C(CSc1nn(-c2ccc(F)cc2)c(=S)s1)N1CCN(C(=O)c2ccco2)CC1 | -0.9 | 0 | -27 | 40% | 43
CC1CCC/C(=N/NC(=O)c2ccccc2-n2cccc2)C1 (configuration not stated) | -1.6 | 1 | -17 | -4% | 2
O=C(/C=C/c1ccccc1)Nc1scc(-c2ccccc2)c1C(=O)O | 2.7 | 73* | / | 1% | /
COCCCNC(=O)CCn1c(=O)c2ccccc2n(CC(=O)Nc2c(C)cccc2C)c1=O | -11 | 1 | -54 | -2% | -1
Cc1ccnc(NC(=O)C2(c3cccs3)CCOCC2)c1 | -1.3 | -1 | -20 | -12% | -1
CCCCSc1nnc([C@@H](NC(=O)OC(C)(C)C)C(C)C)o1 | -0.5 | 1 | -16 | 2% | -2
COc1ccc2c(=O)c3c(=O)n(-c4ccccc4)c(-c4ccc(C)cc4)nc3oc2c1 | 0.1 | / | / | 2% | 37
Cc1ccc(NC(=O)CSc2n[nH]c(-c3ccncc3)n2)cc1 | 0.9 | -1 | 0 | -5% | 7
COc1ccccc1Nc1nc(N)nc(CSC(=S)N2CCCCC2)n1 | 1.0 | / | / | 6% | 2
COc1cc(NC(=O)c2ccccc2F)ccc1NC(=O)c1cc2ccccc2o1 | -2.6 | / | / | / | 4
CCCn1c(=O)[nH]c(=O)c2c1nc(-c1ccc(C#N)cc1)n2CCOC | -2.5 | / | / | / | -8
O=C(/C=C/c1ccccc1Cl)Nc1ccc2c(c1)C(=O)NC2=O | -1.1 | 1 | / | -5% | 1
COc1ccc(OC)c2c1sc(=NC(=O)C1CC1)n2C | 0.9 | / | / | -4% | -5

5 compounds picked at random from the list so far:
SMILES | RecA intein inh | Arbovirus anti | YopH PTP inh | Mtb growth | Mtb betalactam | others
CCCCSc1nnc([C@@H](NC(=O)OC(C)(C)C)C(C)C)o1 | -0.5 | 1 | -16 | 2% | -2
COc1ccccc1Nc1nc(N)nc(CSC(=S)N2CCCCC2)n1 | 1.0 | / | / | 6% | 2
COc1ccc(OC)c2c1sc(=NC(=O)C1CC1)n2C | 0.9 | / | / | -4% | -5
COc1ccc2c(=O)c3c(=O)n(-c4ccccc4)c(-c4ccc(C)cc4)nc3oc2c1 | 0.1 | / | / | 2% | 37
CCCn1c(=O)[nH]c(=O)c2c1nc(-c1ccc(C#N)cc1)n2CCOC | -2.5 | / | / | / | -8

The results go on.
SMILES | RecA intein inh | Arbovirus anti | YopH PTP inh | Mtb growth | Mtb betalactam | others
CN1C(=O)CC(N2CCN(Cc3ccc(Cl)cc3)CC2)C1=O (configuration not stated) | -1.5 | 3 | -22 | 2% | -7
O=Cc1ccc(OCc2nnsc2Cl)cc1 | -0.5 | -3 | / | -6% | 5
O=C(c1cccc([N+](=O)[O-])c1)N1CCOCC1 | 1.6 | 2 | -20 | 2% | -4
Cc1ccc(CC(=O)NCC(c2ccco2)N(C)C)cc1C (configuration not stated) | 0.5 | 1 | / | 3% | 6
CC(=O)O[C@H]1CC[C@@]2(C)[C@@H](CC[C@H]3[C@@H]4CC[C@H](C(C)O)[C@@]4(C)CC(=O)[C@@H]32)C1 (some centres not stated) | 0.2 | / | / | / | 5
CN1CCN(C(=O)C2CCCCC2C(=O)O)CC1 (configuration not stated) | -0.8 | 4 | -35 | -3% | -2 | Arbovirus anti repeat=1
CCC(C(=O)OC)n1cnc2c(nnn2-c2ccc(C)cc2)c1=O (configuration not stated) | 0.5 | / | / | / | -7
[2H]C([2H])(CCOS(N)(=O)=O)c1ccccc1 | -0.4 | / | / | / | 4
O=C1C2CC=C(Cl)CC2C(=O)N1c1ncn[nH]1 (configuration not stated) | -1.0 | 7 | -29 | -9% | -6
CCOC(=O)C1(P(=O)(c2ccc(Cl)cc2)c2ccc(Cl)cc2)CCC1 | 4.0 | -16 | -13 | -3% | -3
CCOC(=O)c1c(NC(=O)c2ccc(S(=O)(=O)N3CCOCC3)cc2)sc2c1CC(C)(C)NC2(C)C | -2.4 | / | / | / | 3
Cc1ccc(-n2nnc(-c3ccnc4ccccc34)n2)cc1 | -0.9 | 2 | / | -6% | 6
CN1CCN(C(=O)Cc2nc3ccccc3[nH]2)CC1 | -4.6 | 13 | -38 | / | -5
COc1ccc(CN(CC(=O)NC2CCCC2)C(=O)CN2C(=O)COc3ccccc32)cc1 | -0.1 | / | / | / | -5
O=c1ccn(Cc2ccc(F)cc2)c2ccnc(C(F)(F)F)c12 | 0.3 | 21 | -8 | -1% | 3
C=CCN=C1N[C@@H](c2cccc(C(F)(F)F)c2)C(C(=O)OC)=C(C)N1CC | -0.2 | / | / | / | -1
CN1C2=C(C#N)C(c3ccccc3)(C(F)(F)F)NC(=O)N2c2ccccc21 (configuration not stated) | -4.5 | -9 | -4 | -17% | 9
CN(C(=O)C1CCOC1)c1nnc(C2CCOC2)s1 (configuration not stated) | 1.6 | 5 | -33 | 13% | -7
COc1ccc(CCNC(=O)COC(=O)c2ccc(Br)o2)cc1 | 0.9 | 3 | 1 | -4% | 2
Fc1ccc(CNCCc2ccc3c(c2)OCO3)cc1 | -1.4 | / | / | / | -4
O=C1OC(Nc2ccc(Br)cn2)c2ccccc21 (configuration not stated) | / | 2 | -53 | -2% | -5
O=C(Nc1cc(Cl)cc(Cl)c1)N1CCCN(Cc2ccccc2)CC1 | 1.1 | / | / | 9% | 2
CCOCCc1nn2c(=O)cc(CSCC(=O)Nc3ccccc3)nc2s1 | -3.4 | / | / | / | 4
O=C(NC(=S)N1CCN(C/C=C/c2ccccc2)CC1)c1c(F)cccc1F | -3.2 | 9 | -33 | ? | 4
Cn1c(=O)c2c(ncn2CC(=O)N2CCN(C(=O)c3ccco3)CC2)n(C)c1=O | -2.1 | -1 | / | -6% | 1
C[C@H](NC(=O)C1CC(=O)N(c2ccc3c(c2)OCCO3)C1)C(=O)NC1CCCC1 (some centres not stated) | -3.0 | / | / | / | 4
Cc1cccc(C)c1NC(=O)C(c1ccccc1)N1CCC2(CC1)OCCO2 (configuration not stated) | -1.0 | / | 9 | -5% | -2
NC1=NC2(CCCCCC2)n2c(nc3ccccc32)N1 | 2.2 | 9 | -3 | -6% | 2
COc1cc(Cl)c(C)cc1NC(=O)c1ccc2c(c1)OCO2 | -0.9 | / | / | / | 1
CCOc1ccc(C(=O)NC2CC3CCCC(C2)N3Cc2ccccc2)cc1 (configuration not stated) | -1.1 | / | / | / | 4
COc1ccc(CCNc2ncnc3c2nnn3Cc2ccccc2)cc1 | -1.1 | / | / | / | 4
Cc1ccc(CS(=O)(=O)CCC(=O)NCc2ccc(F)cc2)cc1 | -0.9 | / | / | / | 0
CCOC(=O)C(NCc1ccccc1OC)(NC(=O)CC)C(F)(F)F (configuration not stated) | -1.7 | 3 | -18 | 10% | -1
CCC(/C=C1\Sc2ccc(OC)cc2N1CC)=C\c1sc2ccc(OC)cc2[n+]1CCCS(=O)(=O)[O-] | -4.4 | 2 | / | 1% | 9
COc1ccc(OCCC(=O)OCC(=O)NCCC2=CCCCC2)cc1 | 2.3 | 2 | / | 5% | -1
CCOC(=O)c1cccc2c(=O)c(C(=O)c3ccc(Cl)cc3)c(C(=O)OC)[nH]c12 | -1.1 | -2 | -23 | 6% | 3
O=C(O)c1oc2ccccc2c1CSc1ccc(Cl)cc1 | 3.0 | / | / | / | 3
